Six1-Eya2 inh: blocks human Six1 binding to Eya2; Q15475+O00167; AlphaScreen GST-Six1/His-Eya2 binding, biochemical; hits give low values; control for the full effect not named in the record; activity change, % (concentration not given with the values); 0.56% of 360,000 active; AID 651725; in the data active = activity change below about -65%; inconclusive = about -30% to -65%; inactive = above about -30%; further: on the % scale 0 is the no-effect control and ±100 the full control effect
Target sequence (O00167 whole entry, looked up): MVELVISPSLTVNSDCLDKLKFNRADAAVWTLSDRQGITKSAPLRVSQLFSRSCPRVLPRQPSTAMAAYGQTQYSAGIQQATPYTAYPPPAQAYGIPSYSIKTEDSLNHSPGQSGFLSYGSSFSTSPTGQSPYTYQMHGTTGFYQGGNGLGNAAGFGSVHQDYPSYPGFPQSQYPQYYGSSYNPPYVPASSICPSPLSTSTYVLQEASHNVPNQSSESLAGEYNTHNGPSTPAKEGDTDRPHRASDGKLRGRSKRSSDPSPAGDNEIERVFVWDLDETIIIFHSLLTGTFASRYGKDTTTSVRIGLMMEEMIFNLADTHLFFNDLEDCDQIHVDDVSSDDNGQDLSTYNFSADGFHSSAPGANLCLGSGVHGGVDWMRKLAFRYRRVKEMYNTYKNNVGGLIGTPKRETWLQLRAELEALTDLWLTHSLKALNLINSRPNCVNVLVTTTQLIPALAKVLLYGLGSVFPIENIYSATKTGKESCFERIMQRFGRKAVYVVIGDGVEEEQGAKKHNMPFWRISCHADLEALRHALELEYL
Target sequence (Q15475 whole entry, looked up): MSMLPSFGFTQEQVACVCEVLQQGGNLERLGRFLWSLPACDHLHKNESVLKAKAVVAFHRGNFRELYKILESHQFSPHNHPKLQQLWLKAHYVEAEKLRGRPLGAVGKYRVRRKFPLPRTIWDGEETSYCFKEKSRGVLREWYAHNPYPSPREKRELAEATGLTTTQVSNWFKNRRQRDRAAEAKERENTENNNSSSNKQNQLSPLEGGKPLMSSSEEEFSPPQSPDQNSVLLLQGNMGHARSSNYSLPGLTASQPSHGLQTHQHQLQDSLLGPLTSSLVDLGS
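Homogeneous AlphaScreen proximity assay pairing GST-Six1 with His-tagged Eya2 (added as 5X mix: 250 nM and 500 nM) in 50 mM Tris pH 8.0, 300 mM NaCl, 1 mM TCEP. Glutathione donor and nickel acceptor beads; 1 h, 37 °C, dark.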
D2 agonist: human D2 receptor agonism in beta-arrestin assay | P14416 | DiscoveRx PathHunter D2 beta-arrestin, luminescence, 90 min; 100% = 57 uM dopamine signal | activation, % (concentration not given with the values) | 0.084% of 360,000 active | AID 624465; in the data active = activation above about 40%; inconclusive = about 15% to 40%; inactive = below about 15%; further: compound concentration not given in the record; the text of the record calls up to 30% inactive
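Agonist mode: compounds alone added to overnight-plated D2 PathHunter cells for 90 min at 37 C, with 57 uM final dopamine (EC100) defining full response. Beta-arrestin recruitment detected by chemiluminescent reagent, read after 1 h at ambient temperature.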
D2 potentiator: positive allosteric modulators of human D2 dopamine receptor; P14416; DiscoveRx D2 beta-arrestin cells, luminescence, 90 min; 100% = 57 uM dopamine signal; potentiation, % (concentration not given with the values); 0.23% of 360,000 active; active = potentiation of 50% or more; inconclusive = 30% to 50%; inactive = 30% or less;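 further: compound concentration not given in the record; tested on top of an EC20 dose of dopamine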
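PathHunter D2 cells, attached overnight at 37 deg C, received compound in DMSO plus dopamine at EC20 (50 nM final) for 90 min at 37 deg C. Beta-arrestin recruitment was read as luminescence after 1 h with detection reagent at ambient temperature.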
TRPML1 ag: agonists of human TRPML1 channel; TRPML1-expressing cells, Ca2+ dye fluorescence, FDSS; host cell line not named in the record; reference of the full effect not given here; Q9GZU1; activation, % (no concentration beside the values); AID 624414; 0.12% of 410,000 active; in the data active = activation above about 50%; inconclusive = about 30% to 50%; inactive = below about 30%; further: 0% is about no effect; the text of the record puts the active cut at 80%
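Tetracycline-induced TRPML1-DL cells are seeded and incubated overnight before loading with a no-wash Ca2+ dye and quencher. Agonist activity is taken from the 110 s fluorescence read following compound pin-transfer on an FDSS, before EC80 54-4 challenge.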
TRPML1 inh: human mucolipin-1 channel inhibition; activity change, negative = inhibition, % (concentration not given with the values); 0.02% of 390,000 active; TRPML1-inducible cells, Ca2+ dye fluorescence, FDSS; hits give low values; inhibition of EC80 agonist-evoked calcium signal; Q9GZU1; in the data active means activity change below about -50%; inconclusive means about -30% to -50%; inactive means above about -30%;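 further: stimulus is agonist 54-4 at its EC80 concentration; on the % scale 0 is the no-effect control and ±100 the full control effect; compound concentration not given in the record; the text of the record puts the active cut at -80%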
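TRPML1-DL cells, Tet-induced overnight (~16 h, 37 °C) at 1,500 cells/well, were loaded with Ca8 no-wash dye plus quencher for 45-90 min at room temperature. Compounds were pinned during FDSS kinetic reading; agonist 54-4 at EC80 (4 uM final) then added.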
PINK1 expr mod: modulators of PINK1 expression; 0.2% of 410,000 active; Potency, µM (doses to about 76.6 µM), without a hit: top-dose activation (PINK1 increase), most hits filed as activators; PINK1 immunofluorescence, high-content cytometry, 24 h; active = well fitted activation curve with a large enough effect; inconclusive = small, poorly fitted or top-dose-only effect; inactive = flat fitted curve, though single readings scatter; cell line not stated here;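 further: potency means the concentration at half of the fitted maximal effect; % of control where 0% means no effect; nearly all actives have a fitted effect of over 65% in size; a mitochondrial uncoupler was the plate control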
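Decision-based qHTS: stable cells, 24 h exposure to five compound concentrations, CCCP as control. Fixed cells stained for PINK1 plus nuclear, mitochondrial and cell markers, cytometer read.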
* hit, by the source's call; & = joins results of further samples; [ ] = another dose, or the depositor's remark.

Screening CCOC(=O)COn1c(=O)c(-c2ccc(Cl)cc2)[n+]([O-])c2ccccc21 returned Six1-Eya2 inh 5, D2 agonist -0.9, D2 potentiator -7, TRPML1 ag 1.3, TRPML1 inh -6 and PINK1 expr mod 3.8%.
Screening Cc1ccc(O)c(N=Nc2ccc(S(=O)(=O)N3CCOCC3)cc2)c1 returned Six1-Eya2 inh inconclusive, D2 agonist -3.6, D2 potentiator -7, TRPML1 ag 2.3, TRPML1 inh 14 and PINK1 expr mod 7.1%.
`COc1ccc(CNC(=O)CCCN2C(=O)CCn3nc(-c4cn(C)c5ccccc45)cc32)cc1` gave TRPML1 ag 1.8, TRPML1 inh -21 and PINK1 expr mod 2.3%.
Screening CC(=O)c1cccc(N(C(=O)c2ccco2)C(C(=O)NC2CCCCC2)c2ccc(C)o2)c1 (stereo unspecified) returned Six1-Eya2 inh -2, D2 agonist -3.6, D2 potentiator -8, TRPML1 ag -1.7, TRPML1 inh -19 and PINK1 expr mod 3.1%.
Cc1ccc(C)c(NC(=O)c2ccc3c(O)c(S(=O)(=O)c4ccc(Cl)cc4)c(=O)[nH]c3c2)c1 was read as TRPML1 ag 0.0, TRPML1 inh -6 and PINK1 expr mod 1.4%.
`COCCNC(=O)C1(C)CCN(C(=O)c2ccc3c(c2)C(C)(C)CCC3(C)C)C1` (stereo unspecified) gave Six1-Eya2 inh 1, D2 agonist -1.5, D2 potentiator -1, TRPML1 ag 0.5 and PINK1 expr mod 2.7%.
CC1(C)CC(=O)C=C(NC2CCCCCC2)C1 was read as Six1-Eya2 inh 2, D2 agonist 1.3, D2 potentiator 8, TRPML1 ag 0.0 and TRPML1 inh -10.
Screening O=C(NCCN1CCCC1)c1ccc(Cn2c(=S)[nH]c3ccc(Br)cc3c2=O)cc1 returned Six1-Eya2 inh -6, D2 agonist -8.2, D2 potentiator -8, TRPML1 ag -1.1, TRPML1 inh -3 and PINK1 expr mod 4.0%.
Cc1cc(NC(=O)CSCc2ccc([N+](=O)[O-])cc2)no1 was read as Six1-Eya2 inh 1, D2 agonist 0.1, D2 potentiator -2, TRPML1 ag -0.1, TRPML1 inh 7 and PINK1 expr mod 0.2%.
c1ccc2c(c1)OC(CCCN1CCCCC1)c1ccccc1S2 (stereo unspecified) was read as Six1-Eya2 inh -3, D2 agonist -4.8, D2 potentiator -31, TRPML1 ag 0.6, TRPML1 inh -6 and PINK1 expr mod -1.7%.
Screening COc1ccccc1OCC(=O)NCc1nc(-c2ccc(Cl)cc2)no1 returned TRPML1 ag 0.1, TRPML1 inh 17 and PINK1 expr mod 0.9%.
`C=CCNC(=S)Nc1cccc([N+](=O)[O-])c1` gave Six1-Eya2 inh 0, D2 agonist -6.2, D2 potentiator -17, TRPML1 ag -0.5, TRPML1 inh 26 and PINK1 expr mod 1.4%.
Screening O=C(Nc1cccc([N+](=O)[O-])c1)C1C2/C=C\CCCCC21 (stereo unspecified) returned Six1-Eya2 inh 1, D2 agonist -4.6, D2 potentiator -10, TRPML1 ag 4.0, TRPML1 inh 5 and PINK1 expr mod 7.4%.
For COc1cccc(C(=O)Nc2c3c(nn2-c2cccc(C)c2C)CS(=O)C3)c1OC (stereo unspecified) the results were Six1-Eya2 inh -1, D2 agonist -1.9, D2 potentiator -6, TRPML1 ag 5.8, TRPML1 inh -3 and PINK1 expr mod -1.3%.
Cc1ccc(CN2CCC[C@]3(N[C@H](c4ccc(C(F)(F)F)cc4)[C@@H]4C(=O)N(Cc5ccccc5)C(=O)[C@@H]43)C2=O)cc1 was read as Six1-Eya2 inh -8, D2 agonist -9.8, D2 potentiator 0, TRPML1 ag 1.3, TRPML1 inh 3 and PINK1 expr mod 1.8%.
Screening O=C(Nc1ccccc1C(=O)N1CCCC1)c1ccc(Cl)cc1Cl returned Six1-Eya2 inh 19, D2 agonist 2.3, D2 potentiator 1, TRPML1 ag -0.2, TRPML1 inh -9 and PINK1 expr mod -0.5%.
CC(C)CC(=O)NC(=S)Nc1cc(C(F)(F)F)ccc1N1CCOCC1 was read as Six1-Eya2 inh 7, D2 agonist 3.2, D2 potentiator -2, TRPML1 ag 4.4, TRPML1 inh -6 and PINK1 expr mod 1.9%.
Screening CCN(c1ccc(OC)cc1)S(=O)(=O)c1csc(C(=O)N2CCCC2)c1 returned Six1-Eya2 inh 1, D2 agonist 4.0, D2 potentiator -2, TRPML1 ag 1.7, TRPML1 inh 5 and PINK1 expr mod 0.9%.
Cc1ccc(Cl)cc1NC(=S)N(C)N was read as Six1-Eya2 inh -1, D2 agonist -1.3, D2 potentiator -2, TRPML1 ag 1.7, TRPML1 inh 0 and PINK1 expr mod 0.4%.
Screening CNC(=O)COc1coc(CN2CCN(c3ccccc3OC)CC2)cc1=O returned Six1-Eya2 inh 0, D2 agonist -3.6, D2 potentiator -13, TRPML1 ag -0.3, TRPML1 inh 18 and PINK1 expr mod 4.3%.
`c1cnc2c(c1)ccc1cccnc12` gave Six1-Eya2 inh -90*, D2 agonist 3.1&-2.2, D2 potentiator -13&-23, TRPML1 ag 0.4&-0.5&2.1, TRPML1 inh 24&0 and PINK1 expr mod -1.2%&-0.1%&0.8%.
COc1ccc(C2=CC(=O)CC(c3ccc(F)cc3)C2)cn1 (stereo unspecified) was read as Six1-Eya2 inh 0, D2 agonist 0.6, D2 potentiator -1, TRPML1 ag 0.2, TRPML1 inh -1 and PINK1 expr mod 0.2%.
For COCC(=O)N(Cc1nc2sc(C)c(C)c2c(=O)[nH]1)C1CCCCC1 the results were Six1-Eya2 inh 1, D2 agonist -4.3, D2 potentiator -5, TRPML1 ag 0.7, TRPML1 inh 26 and PINK1 expr mod 3.9%.
Screening CC(C)c1nc(SCC(=O)N2CCN(c3ccccc3)CC2)c2c(=O)n(C)c(=O)n(C)c2n1 returned Six1-Eya2 inh 5, D2 agonist -3.0, D2 potentiator -1, TRPML1 ag -0.1, TRPML1 inh 5 and PINK1 expr mod 0.9%.
Screening Cc1ccc(NC2OC(CO)C(O)C(O)C2O)cc1 (stereo unspecified) returned Six1-Eya2 inh 3, D2 agonist -3.5, D2 potentiator -3, TRPML1 ag 1.2, TRPML1 inh -4 and PINK1 expr mod -0.8%[38.3 µM].
`COc1ccc(C(CNC(=O)c2ccc(OCc3csc(C)n3)cc2)N2CCCC2)cc1` (stereo unspecified) gave Six1-Eya2 inh -2, D2 agonist -1.8, D2 potentiator -25, TRPML1 ag -0.2, TRPML1 inh 1 and PINK1 expr mod 0.2%.
Cc1ccc(Cl)cc1NS(=O)(=O)c1cc2[nH]c(=O)c(=O)[nH]c2cc1C was read as Six1-Eya2 inh 12, D2 agonist 0.9, D2 potentiator -4, TRPML1 ag 0.5, TRPML1 inh -5 and PINK1 expr mod 0.9%.
`COCCNC(=O)/C(C#N)=C\c1ccc(CNS(=O)(=O)c2ccc(C)cc2)o1` gave Six1-Eya2 inh 6, D2 agonist 4.6, D2 potentiator -37, TRPML1 ag 3.1, TRPML1 inh 1 and PINK1 expr mod 2.9%.
COc1ccc(S(=O)(=O)N(CC(=O)Nc2ccccc2Cl)Cc2ccccc2)cc1 was read as TRPML1 ag 2.8, TRPML1 inh 40 and PINK1 expr mod -1.7%.
O=C(Nc1c(C(=O)N2CCCCC2)cnn1-c1ccccc1)c1ccccc1F was read as Six1-Eya2 inh 5, D2 agonist -3.4, D2 potentiator -9, TRPML1 ag -0.3, TRPML1 inh 9 and PINK1 expr mod -1.4%.
`CC(=O)c1ccc(NC(=O)c2cn3c4c(ccc(Cl)c4c2=O)OC(C)C3)cc1` (stereo unspecified) gave TRPML1 ag 0.2, TRPML1 inh 4 and PINK1 expr mod 1.6%.
For CCN(CC)C(=O)Oc1ccc2c(c1)O/C(=C\c1ccco1)C2=O the results were Six1-Eya2 inh -5, D2 agonist 1.0, D2 potentiator -11, TRPML1 ag 0.4, TRPML1 inh 5 and PINK1 expr mod 0.6%.
For COc1ccccc1/C=C/C1(C(=O)NC2CCCC2)CC(=O)N1c1ccccc1 (stereo unspecified) the results were Six1-Eya2 inh -3, D2 agonist -4.6, D2 potentiator -9, TRPML1 ag 1.6, TRPML1 inh 7 and PINK1 expr mod 7.4%.
Screening CCC1(C)CN=C(c2ccccc2)NC1 (stereo unspecified) returned Six1-Eya2 inh 0, D2 agonist 0.5, D2 potentiator -12, TRPML1 ag -0.5, TRPML1 inh -3 and PINK1 expr mod 1.1%.
COc1ccc(/C=C/C(=O)NC(=S)NNC(=O)c2cccs2)cc1 was read as Six1-Eya2 inh -8, D2 agonist -1.3, D2 potentiator -12, TRPML1 ag 1.3, TRPML1 inh -1 and PINK1 expr mod 9.1%.
CC1CCCC(C)N1C(=O)Cc1ccccc1 (stereo unspecified) was read as Six1-Eya2 inh 4, D2 agonist -1.1, D2 potentiator -3, TRPML1 ag 4.3, TRPML1 inh -7 and PINK1 expr mod -1.5%[38.3 µM].
Screening Cc1ccc2oc(C(=O)N3CCC(O)(c4ccccc4)CC3)c(C)c2c1 returned Six1-Eya2 inh -2, D2 agonist -1.2, D2 potentiator 7 and PINK1 expr mod 0.7%.
COC(=O)C1(C)NC(c2ccco2)C2C(=O)N(c3ccc(F)cc3)C(=O)C21 (stereo unspecified) was read as Six1-Eya2 inh 2, D2 agonist -2.1, D2 potentiator -1, TRPML1 ag -0.2, TRPML1 inh 1 and PINK1 expr mod 0.0%.
Screening CCOc1ccc2oc(C(=O)OCC(=O)N3CCCC(C)C3)c(C)c2c1 (stereo unspecified) returned Six1-Eya2 inh 4, D2 agonist 0.5, D2 potentiator -11, TRPML1 ag 3.2, TRPML1 inh -15 and PINK1 expr mod 0.6%.
Screening CC(C)Cn1c(N)c(C(=O)COC(=O)c2ccccc2Cl)c(=O)n(C)c1=O returned Six1-Eya2 inh -1, D2 agonist 3.7, D2 potentiator 8, TRPML1 ag 2.7, TRPML1 inh 4 and PINK1 expr mod -1.8%.
Screening COc1ccc(CNc2oc(/C=C/c3cccc(OC)c3)nc2C#N)cc1 returned TRPML1 ag -0.9, TRPML1 inh 3 and PINK1 expr mod -1.0%.
Screening CC(=O)OC(C(=O)NC1CCCCC1)c1cccc(C)c1 (stereo unspecified) returned Six1-Eya2 inh 1, D2 agonist -0.4, D2 potentiator -9, TRPML1 ag 0.0, TRPML1 inh 5 and PINK1 expr mod 1.8%.

At a glance, part of the list above.
`CC(=O)c1ccc(NC(=O)c2cn3c4c(ccc(Cl)c4c2=O)OC(C)C3)cc1` (stereo unspecified) gave TRPML1 ag 0.2, TRPML1 inh 4 and PINK1 expr mod 1.6%.
For CCN(CC)C(=O)Oc1ccc2c(c1)O/C(=C\c1ccco1)C2=O the results were Six1-Eya2 inh -5, D2 agonist 1.0, D2 potentiator -11, TRPML1 ag 0.4, TRPML1 inh 5 and PINK1 expr mod 0.6%.
For COc1ccccc1/C=C/C1(C(=O)NC2CCCC2)CC(=O)N1c1ccccc1 (stereo unspecified) the results were Six1-Eya2 inh -3, D2 agonist -4.6, D2 potentiator -9, TRPML1 ag 1.6, TRPML1 inh 7 and PINK1 expr mod 7.4%.

Source: PubChem BioAssay (National Center for Advancing Translational Sciences (NCATS))
